Screening data from PubChem.
NS1 function inh: blocks influenza NS1 protein function. S. cerevisiae slowed by influenza A NS1, growth recovery by OD600. Potency, µM (titrated, usually from 46.1 µM), for inactives: at the highest dose activity, positive = more growth. 0.4% of 270,000 active. AID 2326; further: actives are rising curves; nearly all actives have a fitted effect of over 50% in size
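Read-out: OD600 growth recovery of NS1-expressing budding yeast. Cells grown overnight at 30C in -URA glucose medium, washed, resuspended and diluted 1:100 in 2% galactose assay medium, pH 6.0. Same strain lacking NS1 served as positive control.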
Lassa entry inh: blocks Lassa virus binding to or entry into cells; AID 540256; Lassa virus pseudotype entry inhibition, cell reporter; control for the full effect not named in the record; 1.2% of 300,000 active; Potency, µM (top dose mostly 37.9 µM), for the others: at the top dose activity change, negative = inhibition, most hits filed as inhibitors; active means well fitted inhibition curve with a large enough effect; inconclusive means small, poorly fitted or top-dose-only effect, or effect the other way; inactive means flat fitted curve, though single readings scatter; tested in HEK293 cells; further: on the % scale 0 is the no-effect control and ±100 the full control effect; nearly all actives have a fitted effect of over 50% in size; luciferase read-out
Cruzain inh noDet: inhibitors of Trypanosoma cruzi cruzain without detergent. 2.3% of 200,000 active. P25779. Potency, µM, inactives show max response, negative = inhibition, actives largely listed as inhibitors. AID 1476. purified cruzain, Z-FR-AMC fluorescence, no detergent; active means well fitted curve in the direction sought with a large enough effect; inconclusive means small, poorly fitted or top-dose-only effect, or another doubt; inactive means no such curve, though single readings can be large; an effect the other way counts as inactive or inconclusive;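 further: plate controls were enzyme without inhibitor for no effect and buffer without enzyme for full effect; nearly all actives have a fitted effect of over 40% in size; top concentration of the series not given in the record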
Target sequence (P25779 123-467 limits assumed): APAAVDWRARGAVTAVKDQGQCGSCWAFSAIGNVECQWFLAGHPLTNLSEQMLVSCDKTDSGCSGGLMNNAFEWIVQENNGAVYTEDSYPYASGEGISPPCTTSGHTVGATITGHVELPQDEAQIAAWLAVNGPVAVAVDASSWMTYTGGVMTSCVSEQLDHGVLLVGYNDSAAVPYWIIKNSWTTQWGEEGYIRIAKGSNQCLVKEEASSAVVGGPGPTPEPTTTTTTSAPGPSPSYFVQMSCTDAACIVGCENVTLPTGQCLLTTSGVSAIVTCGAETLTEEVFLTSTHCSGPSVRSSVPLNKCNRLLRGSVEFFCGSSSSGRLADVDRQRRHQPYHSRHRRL
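Purified cruzain at 1.5 nM, pre-incubated 15 min with compound at room temperature in 100 mM sodium acetate pH 5.5, 5 mM DTT, 0.00005% Triton X-100. Reaction started with 2 uM Z-FR-AMC; AMC fluorescence increase over 60 s gives rate.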
Cruzain Triton: inhibitors of Trypanosoma cruzi cruzain with detergent | P25779 | purified cruzain, Z-FR-AMC fluorescence, 0.01% Triton | Potency, µM, inactives show max response, negative = inhibition, most hits filed as inhibitors | 0.43% of 200,000 active; active means well fitted curve in the direction sought with a large enough effect; inconclusive means small, poorly fitted or top-dose-only effect, or another doubt; inactive means no such curve, though single readings can be large; an effect the other way counts as inactive or inconclusive;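 further: plate controls were neutral wells for no effect and buffer without enzyme for full effect; nearly all actives have a fitted effect of over 40% in size; top concentration of the series not given in the record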
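Sodium acetate buffer (100 mM, pH 5.5) containing 5 mM DTT and 0.01% Triton X-100 hosted 1.5 nM cruzain and test compound for 15 min at room temperature. Cleavage of 2 uM Z-FR-AMC was then tracked by fluorescence.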
Marburg entry inh: inhibitors of Marburg virus binding or cell entry; Marburg virus pseudotyped entry inhibition, cell reporter; control for the full effect not named in the record; about a third of the inactives were read at about 46 µM; Potency, µM (titrated, usually from 37.8 µM), without a hit: top-dose activity change, negative = inhibition, most hits filed as inhibitors; 1.8% of 300,000 active; AID 540276; active = well fitted inhibition curve with a large enough effect; inconclusive = small, poorly fitted or top-dose-only effect, or effect the other way; inactive = flat fitted curve, though single readings scatter; tested in HEK293 cells; about a fifth of its hits are not listed in these tables; further: on the % scale 0 is the no-effect control and ±100 the full control effect; luciferase read-out
StopGo reporter: FMDV 2A StopGo reporter, luciferase signal | 1.2% of 410,000 active | Potency, µM (series often up to 57.9 µM), inactives show at the highest dose signal change, negative = less light | human cells with a luciferase reporter of 2A StopGo recoding; control for the full effect not named in the record; active = well fitted falling curve with a large enough effect; inconclusive = small, poorly fitted or top-dose-only effect; inactive = no such curve, though single readings can be large or run the other way; tested in HEK293T cells; further: on the % scale 0 is the no-effect control and ±100 the full control effect; nearly all actives have a fitted effect of over 45% in size; luciferase light after 4 h
SARS PLpro yeast: inhibitors of SARS-CoV papain-like protease in yeast; S. cerevisiae expressing SARS-CoV PLpro, growth rescue; control for the full effect not named in the record; Potency, µM (highest dose often 32.9 µM), inactives show at the top dose activity, positive = growth rescue; 0.19% of 330,000 active; AID 485353; further: 0% is about no effect; nearly all actives have a fitted effect of over 55% in size; growth read by luminescence after 48 h
RE007 growth inh: less growth of the S. pombe RE007 Vpr strain. S. pombe RE007 Vpr strain, BacTiter-Glo ATP luminescence, 24 h; control for the full effect not named in the record. Potency, µM (highest dose often 92.2 µM), inactives show at the highest dose activity change, negative = less growth. 0.21% of 360,000 active. AID 651644; active = well fitted falling curve with a large enough effect; inconclusive = small, poorly fitted or top-dose-only effect; inactive = no such curve, though single readings can be large or run the other way;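 further: on the % scale 0 is the no-effect control and ±100 the full control effect; nearly all actives have a fitted effect of over 50% in size; the assay follows cell death caused by Vpr and the record does not say whether a fall means rescue or toxicity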
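Fission yeast RE007 carrying one integrated HIV-1 vpr copy, seeded at OD 0.01 in PMG+AL medium with 23 nL pinned compound. Grown 24 h at 30 degrees; viability read by BacTiter-Glo luminescence after 5 min.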
* = called active by the depositor; ? = inconclusive; · = no result given; & = joins results of further samples; [ ] = another dose, or the depositor's remark. Unless noted, the call rests on the fitted dose curve; in most records, active means well fitted rising curve with a large enough effect; inconclusive means small, poorly fitted or top-dose-only effect; inactive means no such curve, though single readings can be large or run the other way. Potency means the concentration at half of the fitted maximal effect.

Results follow in this order: NS1 function inh	Lassa entry inh	Cruzain inh noDet	Cruzain Triton	Marburg entry inh	StopGo reporter	SARS PLpro yeast	RE007 growth inh
> CCOC(=O)C1CCN(C(=O)c2ccc3c(=O)n4c(nc3c2)CCCCC4)CC1
    ·	3%	·	·	?	-11%	-5%	-4%
> CCCC(=O)NC(=S)Nc1ccccc1N1CCOCC1
    12%	?	3%	1.0%	-15%	-21%	3%	-10%
> O=C(CP(=O)(c1ccccc1)c1ccccc1)Nc1nc2ccc(Cl)cc2s1
    4%	?	·	·	·	-30%	3%	-8%
> CC(C(=O)Nc1ccc(F)c(F)c1F)N(C)CC(=O)Nc1ccccc1Br (stereo not drawn)
    -9%	6%[46.1 µM]	-4%	-7.3%	?	-11%	15%	6%
> COc1ccc(N2CCN(Cc3nc(-c4ccc(Cl)cc4Cl)no3)CC2)cc1
    5%	3%	23%	-7.3%	?	0%	-4%	2%
> C=CCn1c(COc2cccc(C)c2C)nnc1SCC(=O)N1CCN(c2ccccc2)CC1
    -10%	5.6µM*	?	-5.2%	?	18µM*	?	1%
> COc1ccc(-c2noc(-c3ccccc3OCC(=O)Nc3ccc(C(C)=O)cc3)n2)cc1
    ·	-19%[46.1 µM]	-5%	-9.9%	-2%[46.1 µM]	5%	·	·
> O=S(=O)(Nc1cccc(-c2ccc3nncn3n2)c1)c1ccc(Cl)s1
    ·	9%[46.1 µM]	·	·	?	24%	-2%	4%
> COc1ccccc1C(=O)Nc1ccnn1C1CCN(CC2CC=CCC2)CC1 (stereo not drawn)
    -6%	·	·	·	·	?	1%	-1%
> CC(C)(C)c1ccccc1OCCOCCNCc1ccccc1
    -9%	-27%	3%	-0.9%	?	?	-13%	·
> COC(=O)c1cc(C)sc1NC(=S)N1CCN(CCc2ccccc2)CC1
    5%	16%	·	·	?	-23%	0%	6%
> COc1ccc(/C(O)=C/c2nc3ccc(C(=O)NCCc4cccc(C)c4)cc3[nH]c2=O)cc1OC
    ?	14%	30%	-4.7%	?	-23%	0%	40%
> COC(=O)c1cn(NC(=O)c2ccncc2)c(=O)c2ccccc12
    -9%	10%	1%	-1.4%	?	2%	-1%	-5%
> Cc1cccc(C)c1NC(=O)C(c1cccc([N+](=O)[O-])c1)N(C)C(=O)c1ccccn1 (stereo not drawn)
    2%	-3%	-3%	-2.1%	-22%	-21%	-6%	-6%
> COc1ccc(C(=O)Nc2nc(C)c3cc4c(cc3n2)OCO4)cc1
    2%	-1%[46.1 µM]	-12%	-2.0%	?	25µM*	-15%	1%

Two compounds from above with just NS1 function inh, StopGo reporter and Cruzain inh noDet.
compound	NS1 function inh	StopGo reporter	Cruzain inh noDet
C=CCn1c(COc2cccc(C)c2C)nnc1SCC(=O)N1CCN(c2ccccc2)CC1	-10%	18µM*	?
COc1ccc(-c2noc(-c3ccccc3OCC(=O)Nc3ccc(C(C)=O)cc3)n2)cc1	·	5%	-5%

Further results follow:
Results follow in this order: NS1 function inh	Lassa entry inh	Cruzain inh noDet	Cruzain Triton	Marburg entry inh	StopGo reporter	SARS PLpro yeast	RE007 growth inh
> CC(C)c1c(C(=O)N/N=C/c2cccnc2)nnn1-c1nonc1N
    -14%	-8%	·	·	3%[46.1 µM]	-13%	?	8%
> COC(=O)/C(C#N)=C(/Nc1ccc(F)c(Cl)c1)C(F)(F)F
    2%	3%	·	·	-1%[46.1 µM]	13%	-2%	-3%
> CCOc1ccc2cc(C3CC(c4ccco4)=NN3S(C)(=O)=O)c(=O)[nH]c2c1 (stereo not drawn)
    4%	·	·	·	·	51%[activator]	1%	-8%
> O=C(NCc1ccccc1)C(=O)Nc1c2c(nn1-c1ccc(F)cc1)CSC2
    ·	-22%[46.1 µM]	20µM*	-0.5%	·	-21%	·	·
> Cc1sc(NC(=O)c2ccc3ncsc3c2)c(C(N)=O)c1C
    ·	?	·	·	?	28%	-1%	-15%
> O=C(NC1CCCCC1)C1CCN(c2nnnn2-c2ccccc2)CC1
    0%	3%	6%	3.1%	16%	-12%	-5%	2%
> CCC(NC(=O)c1cc(COc2ccc(C)nc2)on1)c1ccc(C)cc1 (stereo not drawn)
    19%	?	·	·	?	?	-1%	2%
> COc1ccc(S(=O)(=O)N2CCOCC2)cc1NC(=O)c1ccc(OC(F)F)cc1
    ·	3%	·	·	2%[46.1 µM]	83%[activator]	4%	0%
> Cc1occc1C(=O)NNS(=O)(=O)c1ccc(Cl)cc1
    50%	6%	-5%	-0.2%	0%	83%[activator]	-2%	17%
> C=CCn1c(=O)/c(=C/c2ccc(F)cc2)s/c1=C(\C#N)c1nnc2n1CCCCC2
    -53%	-27%	?	-5.6%	-21%	·	2%	-9%
> O=C(COc1ccccc1)Nc1cccc(S(=O)(=O)N2CCCC2)c1
    ·	?	·	·	3%	-4%	2%	6%
> CCN(Cc1ccc(Cl)s1)C(=O)c1cccc(OCc2c(C)noc2C)c1
    ·	?	·	·	-26%	?	0%	28%
> COc1ccc(N2CCN(C(=O)c3ccc(F)cc3)CC2)c([N+](=O)[O-])c1
    -8%	-9%	·	·	-17%[46.1 µM]	?	-1%	14%
> COc1cc(S(=O)(=O)N2CCCCC2)ccc1NC=O
    8%	27%	-8%	4.2%	2%	-19%	·	8%
> Clc1cccc(Nc2c3c(nc4ncnn24)CCC3)c1
    -4%	-5%	17%	1.4%	10%	-29%	-3%	2%
> CCOc1ccc(C2C(C(=O)Nc3ccc(C)cc3C)=C(C)Nc3c(C(=O)Nc4ccc(C)cc4)cnn32)cc1OC (stereo not drawn)
    ·	11%[46.1 µM]	?	-0.8%	·	-11%	·	·
> Cc1ccc(S(=O)(=O)NCCC(=O)Nc2cccc(S(=O)(=O)N3CCCC3)c2)cc1C
    ·	-16%	·	·	?	45%[activator]	-1%	11%
> O=C(c1csc2c1CCCC2)N1CCN(c2ccccc2)CC1
    -16%	10%	-2%	-5.7%	0%	-21%	2%	-9%
> C#CCn1c(=NC(=O)c2ccc(Cl)s2)sc2cccc(OC)c21
    -4%	·	?	4.9%	·	14%	6%	-7%
> CC(NC(=O)C1CCCN(S(=O)(=O)c2cnc[nH]2)C1)c1ccccc1 (stereo not drawn)
    4%	·	-15%	2.1%	·	-22%	3%	1%
> CCCCc1nn2c(C)c(-c3ccc(OCC)cc3)nc2s1
    ·	-6%[46.1 µM]	9%	-0.8%	-4%[46.1 µM]	8%	·	·
> COc1ccc(-c2noc(N3CCC(C(=O)NC(C)c4ccccc4)CC3)n2)cc1 (stereo not drawn)
    -17%	·	·	·	·	?	-9%	-4%
> COc1cccc(CNC(=O)COC(=O)C2CC3CCCC(C2)C3=O)c1 (stereo not drawn)
    ·	-11%[46.1 µM]	·	·	2%	-10%	3%	2%
> O=C(c1ccccc1)N(c1ccccc1)C1C=CS(=O)(=O)C1 (stereo not drawn)
    -9%	0%	16%	9.1%	19%	-20%	13%	15%
> COC(=O)c1ccccc1NC(=O)Nc1cc(C)cc(C)n1
    6%	6%	-8%	2.2%	-1%	1%	-5%	-3%
> O=C(NC12CC3CC(CC(C3)C1)C2)c1cc([N+](=O)[O-])ccc1Cl
    14%	·	·	·	·	-28%	1%	6%
> O=C(/C=C/c1ccco1)Nc1ccccn1
    -3%	?	3%	-6.5%	?	7%	-38%	-23%
> COc1ccccc1OCCNC(=O)CCNS(=O)(=O)c1ccc(C)cc1
    ·	-10%	·	·	7%[46.1 µM]	0%	·	-16%
> COc1cc(OC)c(C(=O)Nc2ccc(S(=O)(=O)Nc3ncccn3)cc2)cc1OC
    -18%	7%	?	5.5%	10%	10%	-1%	-19%
> COCCn1nnnc1C(c1cccs1)N1CCN(c2nc3ccccc3s2)CC1 (stereo not drawn)
    -60%	-29%	?	-4.6%	?	?	-14%	-1%

An excerpt of these results, as comma-separated lines.
SMILES,NS1 function inh,Lassa entry inh,Cruzain inh noDet,Cruzain Triton,Marburg entry inh,StopGo reporter,SARS PLpro yeast,RE007 growth inh
COc1ccc(S(=O)(=O)N2CCOCC2)cc1NC(=O)c1ccc(OC(F)F)cc1,·,3%,·,·,2%[46.1 µM],83%[activator],4%,0%
Cc1occc1C(=O)NNS(=O)(=O)c1ccc(Cl)cc1,50%,6%,-5%,-0.2%,0%,83%[activator],-2%,17%
C=CCn1c(=O)/c(=C/c2ccc(F)cc2)s/c1=C(\C#N)c1nnc2n1CCCCC2,-53%,-27%,?,-5.6%,-21%,·,2%,-9%

Next section:
Results follow in this order: NS1 function inh	Lassa entry inh	Cruzain inh noDet	Cruzain Triton	Marburg entry inh	StopGo reporter	SARS PLpro yeast	RE007 growth inh
> Cc1ccc(CNC(=O)/C=C/c2c(Cl)cccc2Cl)cc1
    11%	-1%	25µM*	-0.1%	-16%	-3%	-3%	14%
> Cc1cccc(C(=O)Nc2sc3c(c2C(=O)N2CCCCC2)CCC(C)C3)c1 (stereo not drawn)
    ·	5%[46.1 µM]	-18%	-1.8%	-10%[46.1 µM]	-8%	·	·
> c1cc(CNC23CC4CC(CC(C4)C2)C3)ccn1
    -1%	·	·	·	9%[46.1 µM]	-3%	2%	-14%
> CCOC(=O)c1c(NC(=O)CSc2nnc(CN3CCOCC3)n2C)sc2c1CCCC2
    -19%	-3%	?	-12%	-3%&-3%	-8%	-5%	0%
> Cc1ccnc(NC(=O)C2CCCN(c3ncnc4c3nc3n4CCCCC3)C2)c1 (stereo not drawn)
    9%	23%[46.1 µM]	·	·	1%[46.1 µM]	-7%	3%	-6%
> CSc1nc(NCc2ccco2)c2sc3nc(C(C)C)c4c(c3c2n1)CC(C)(C)OC4
    6%	5%	-4%	-1.3%	21%	6%	-1%	?
